Sfp PPTase inh: blocks B. subtilis Sfp PPTase activity | AID 1490 | 310,000 tested, 3.5% active | Potency, µM, without a hit: max response, negative = inhibition, hits mostly inhibitors | Biochemical Sfp PPTase activity, qHTS; active = well fitted inhibition curve with a large enough effect; inconclusive = small, poorly fitted or top-dose-only effect, or another doubt; inactive = no such curve, though single readings can be large or run the other way;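 note: the enzyme is Sfp with the accession as filed and its product quenches rhodamine fluorescence; potency is the fitted concentration of half-maximal effect; 0% = enzyme reaction without inhibitor and -100% = no enzyme wells; top concentration of the series not given in the record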
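Fluorescence-quenching assay with 15 nM Sfp, 5 uM rhodamine-CoA and 12.5 uM BHQ-2-labelled ybbR peptide in pH 7.6 Hepes/MgCl2 buffer. Enzyme was pre-incubated with compound for 15 min at room temperature. Rate was taken from the 30-min fluorescence change (525/598 nm).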
Menin-MLL FL inh: menin-MLL binding inhibition, fluorescein peptide; Fluorescence polarization, fluorescein-MLL peptide displacement from menin; FP activity change, % at 61.4 µM; 290,000 tested, under 10 active; inconclusive = falling polarisation curve, or a change in total fluorescence; inactive = total fluorescence flat and polarisation flat or rising; no compound was filed as active; the % refers to the polarisation; negative = inhibition;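 note: % of control where 0% means no effect; inhibitors lower the polarisation; unlabelled MLL peptide was the positive control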
CtBP-E1A inh: inhibitors of CtBP/E1A interaction; activity change, % (test concentration not listed); 340,000 tested, 0.49% active; AID 651724; AlphaScreen GST-E1A/His-CtBP binding, 1536-well; stronger effect = lower value; control for the full effect not named in the record; in the data active means activity change below about -65%; inconclusive means about -30% to -65%; inactive means above about -30%; note: % is set by controls: 0 for no effect and ±100 for the full control effect; compound concentration not given in the record
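Steps: dispense buffer (Tris pH 8.0, NaCl 300 mM, TCEP 1 mM, BSA, Tween 20); add 5X protein mix (GST-E1A, His-CtBP, 125 nM each); pin 23 nL compound; 2 h at 37 °C, dark; add 5X beads (50 ug/mL); 1 h; read.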
ClpP mod: qHTS Assay for Activators of ClpP. AID 651965, 2013. ATP-dependent Clp protease proteolytic subunit (Bacillus subtilis (strain 168)), P80244. 340,000 tested, 1.9% active. purified B. subtilis ClpP, FRET peptide cleavage, 20 min. Potency, µM (series often up to 57.5 µM), for the others: top-dose activity change, negative = active; active = well fitted falling curve with a large enough effect; inconclusive = small, poorly fitted or top-dose-only effect; inactive = no such curve, though single readings can be large or run the other way; note: potency is the fitted concentration of half-maximal effect; the source files actives as falling curves though it sought activators and does not explain the sign; nearly all actives have a fitted effect of over 65% in size; many hits overshoot -100%
Target sequence (P80244 whole entry, looked up): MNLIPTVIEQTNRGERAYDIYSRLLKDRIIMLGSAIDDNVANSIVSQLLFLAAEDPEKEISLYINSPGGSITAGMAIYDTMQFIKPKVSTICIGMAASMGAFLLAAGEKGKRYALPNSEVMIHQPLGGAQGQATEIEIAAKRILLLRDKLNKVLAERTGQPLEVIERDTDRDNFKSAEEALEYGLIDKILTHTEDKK
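FRET quenching reversal measured ClpP activation: 10 microg/mL B. subtilis ClpP at pH 8 with the FRET-FV decapeptide, read at 430 nm after 320 nm excitation. The 20-min minus 0-min signal was scaled between DMSO/no-enzyme wells and ADEP (5.8 microM final).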
TRPV1 PAM: human TRPV1 potentiation; TRPV1-expressing cells, Fluo-8 calcium influx, capsaicin EC20 potentiation; host cell line not named in the record; control for the full effect not named in the record; potentiation, % at 8.33 µM; Q8NER1; 320,000 tested, 0.02% active; active means potentiation above 80%; inconclusive means 30% to 80%; inactive means below 30%; note: 0% is about no effect
Target sequence (Q8NER1 whole entry, looked up): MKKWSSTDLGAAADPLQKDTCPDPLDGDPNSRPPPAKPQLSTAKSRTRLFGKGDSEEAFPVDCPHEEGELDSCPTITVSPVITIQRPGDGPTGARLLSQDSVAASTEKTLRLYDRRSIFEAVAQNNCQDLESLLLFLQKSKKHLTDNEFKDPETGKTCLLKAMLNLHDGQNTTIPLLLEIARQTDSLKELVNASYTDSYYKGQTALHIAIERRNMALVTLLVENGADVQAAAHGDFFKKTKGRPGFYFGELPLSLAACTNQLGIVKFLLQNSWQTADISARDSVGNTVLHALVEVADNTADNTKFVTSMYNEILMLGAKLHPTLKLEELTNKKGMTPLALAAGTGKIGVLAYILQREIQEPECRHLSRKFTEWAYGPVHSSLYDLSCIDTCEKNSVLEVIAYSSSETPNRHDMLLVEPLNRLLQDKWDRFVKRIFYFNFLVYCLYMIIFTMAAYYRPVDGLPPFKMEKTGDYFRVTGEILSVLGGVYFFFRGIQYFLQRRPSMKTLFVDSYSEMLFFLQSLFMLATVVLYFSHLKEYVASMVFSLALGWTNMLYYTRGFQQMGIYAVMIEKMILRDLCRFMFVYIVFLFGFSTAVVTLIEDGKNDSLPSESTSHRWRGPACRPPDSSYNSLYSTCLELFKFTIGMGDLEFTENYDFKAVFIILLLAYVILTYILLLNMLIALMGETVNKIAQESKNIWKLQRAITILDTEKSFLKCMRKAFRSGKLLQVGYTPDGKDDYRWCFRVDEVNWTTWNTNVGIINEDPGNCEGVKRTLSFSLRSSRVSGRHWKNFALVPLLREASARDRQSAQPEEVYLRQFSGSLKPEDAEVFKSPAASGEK
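Fluo-8 calcium influx in TRPV1-expressing cells, kinetic read (ex 480/em 520 nm). Compound added and read 3 min for agonist activity, followed by capsaicin at EC20 final and 2 min further read for enhancement.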
gsp antag: antagonizes gsp, the McCune-Albright syndrome mutation; gsp-mutant cells, cAMP HTRF, 30 min; control for the full effect not named in the record; Potency, µM (titrated, usually from 76.9 µM), inactives show top-dose activity change, negative = inhibition, actives largely listed as inhibitors; 340,000 tested, 0.4% active; AID 624288; active = falling curve of any shape with a large fitted effect; inconclusive = falling curve, mostly with a smaller effect; inactive = flat or rising curve; cell line not stated here;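 note: intracellular cAMP measured with PDE inhibitor Ro 20-1724 present during compound exposure; potency is the fitted concentration of half-maximal effect; % is set by controls: 0 for no effect and ±100 for the full control effect; nearly all actives have a fitted effect of over 65% in size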
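Measurement of cellular cAMP by homogeneous time-resolved fluorescence following a 30 min compound exposure at 37C. The PDE inhibitor […] was present throughout; the assay buffer was DPBS with 0.05% BSA and 0.005% Tween 20.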
gsp agonist: activates gsp, the McCune-Albright syndrome mutation; gsp mutant cells, cAMP HTRF, 30 min; control for the full effect not named in the record; 340,000 tested, 0.13% active; Potency, µM (titrated, usually from 76.9 µM), inactives show top-dose activation (cAMP increase), hits mostly activators; active = well fitted activation curve with a large enough effect; inconclusive = small, poorly fitted or top-dose-only effect, or another doubt; inactive = no such curve, though single readings can be large or run the other way; cell line not stated here;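 note: phosphodiesterase inhibitor Ro 20-1724 added with compounds to block cAMP breakdown; potency is the fitted concentration of half-maximal effect; nearly all actives have a fitted effect of over 60% in size; about a fifth of the inactives were tested at one dose only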
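Cells stably selected in G418 were plated at 2000/well, grown 16-24 hr, then given compounds in DMSO with the PDE inhibitor […] (300 uM solution added) for 30 min at 37C; cAMP was read by HTRF.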
* = called active by the depositor; ? = inconclusive; nt = not tested or not shown; & = joins results of further samples; [ ] = another dose, or the depositor's remark.

SMILES	Sfp PPTase inh	Menin-MLL FL inh	CtBP-E1A inh	ClpP mod	TRPV1 PAM	gsp antag	gsp agonist
CCN(CC)S(=O)(=O)c1ccc(/C=C/C(=O)Nc2c(C)n(C)n(-c3ccccc3)c2=O)cc1	13%	0.5	0	nt	1	nt	-3%[15.4 µM]
Cc1c(C)n2c(SCC(=O)N3CCC(C)CC3)nnc2[nH]c1=O	nt	nt	3	nt	?	1%	32%[15.4 µM]
COc1ccc2c(c1)C(=O)[C@@H](O)[C@H](c1ccc(OC)c(Br)c1)O2	-2%&0%	2.5&4.9	-17	0.4%	-4	-8%	nt
COc1ccc(CNC(=O)CCCCCNc2nc(=S)[nH]c3ccccc23)cc1	-11%	4.2	?	nt	3	0%	1%[15.4 µM]
Cn1cccc1C(=O)OCC(=O)NCCc1ccccc1	nt	nt	-4	-1.4%	nt	6%	-1%
O=C(CN(C(=O)c1csnn1)c1ccccc1C(F)(F)F)NC1CCCCC1	-13%	-1.9	15	-5.4%	-1	7%	13%[15.4 µM]
c1cncc(C(c2nnnn2C2CCCCC2)N2CCCCC2)c1 (configuration not stated)	8%	-2.7	-8	-0.4%	?	4%	-53%[inhibitor]
CN(c1ccc(OC(=O)CC2OC(=O)c3ccccc32)cc1)S(=O)(=O)c1ccccc1 (configuration not stated)	nt	nt	nt	1.7%	-10	-9%	8%
CCc1ccc(NC(=O)COc2coc(CN3CCc4ccccc4C3)cc2=O)cc1	nt	nt	-5	-6.7%	-3	1%	?
COc1ccc(C(CNC(=O)C2CC(=O)N(Cc3ccc(C)cc3)C2)N(C)C)cc1 (configuration not stated)	16%	1.1	-3	-1.9%	-6	11%	1%
NC(=O)c1cc([N+](=O)[O-])ccc1N1CCN(Cc2ccccc2)CC1	2%	0.5	0	nt	1	17%	-9%
COc1ccc(CNc2nc(-c3cccnc3)nn2C(C)=O)cc1	9%	-0.3	1	-7.2%	-4	-29%	-2%[15.4 µM]
CCCCC(=O)N1CCN(c2nc3ccc(Cl)cc3s2)CC1	3%	nt	4	-0.3%	13	?	-50%[inhibitor]
CCN(Cc1ccccc1)C(c1ccccn1)c1nnnn1C(C)(C)CC (configuration not stated)	-2%	0.8	6	-2.5%	-17	?	24%
COc1cc(-c2nc(-c3cccc(C)c3)no2)cc(OC)c1OC	?	4.6	18	-25%	-4	-4%	-15%
CCn1nc(C)c(/C=C/C(=O)Nc2ccc(C)cc2C)c1C	-20%	2.3	0	-16%	4	-2%	3%[15.4 µM]
Cc1cc(C(=O)Nc2c(F)cc(F)cc2Br)cs1	-5%	nt	2	1.6%	16	-2%	23%
C/C(CC(=O)NC1CCCC1)=N\NC(=O)Cc1csc(N)n1	-11%	0.7	3	-4.2%	4	8%	-4%
COc1ccc(S(=O)(=O)NC(CC(=O)NCCc2ccccc2)c2ccco2)cc1 (configuration not stated)	15%	1.4	6	0.8%	1	0%	-51%[inhibitor]
Fc1cc2[nH]cnc2cc1Cl	11%	6.7	-2	-2.7%	?	1%	-29%
CN(C)c1ccc(C=NCCc2ccc(S(N)(=O)=O)cc2)cc1	9%	1.3	2	-1.8%	-2	9%	0%
O=C(Nc1ccccc1)OCN1C(=O)c2ccccc2C1=O	9%	-1.1	4	-1.4%	0	-11%	-2%
O=C(N/C(=C/c1ccc(Br)cc1)C(=O)N1CCOCC1)c1ccco1	14%	-3.7	3	6.0%	-8	-5%	-32%[inhibitor]
O[C@@H]1CN(CC2CCCCC2)[C@@H](c2ccccc2)C[C@H]1n1cc(C2CC2)nn1	nt	nt	-5	-0.2%	nt	nt	22%
O=C1C2C3C=CC(C3)C2C(=O)N1Nc1ccccc1 (configuration not stated)	6%	3.8	-3	nt	11	5%	?
COc1ccc(NC(=O)c2ccccn2)cc1S(=O)(=O)N1CCOCC1	-21%	2.4	-17	nt	5	5%	26%
O=C(CS(=O)CC(=O)Nc1cnc2ccccc2c1)Nc1ccc(Cl)cc1 (configuration not stated)	0%	1.2	-3	nt	28	-6%	-2%
O=C(NN1CC(=O)N(c2cc(Cl)cc(Cl)c2)CC1=O)c1sccc1Cl	5%	3.3	nt	-1.6%	25	0%	?
COc1ccc(NC(=O)CN(C)C(=O)CNC(=O)c2ccc3c(c2)OCO3)cc1	nt	nt	-9	nt	-4	8%	22%[15.4 µM]
Cc1ccc(Oc2ccc(N)cc2)cc1	-1%	9.2	-17	-1.6%	-5	7%	6%
CC1CCCCC1NC(=O)NC(=O)COC(=O)C1=NN(c2ccccc2)C(=O)CC1 (configuration not stated)	nt	nt	2	0.1%	16	-2%	4%
COc1ccc(/C=N/NC(=O)CNC(=O)c2ccc(S(=O)(=O)N3CCOCC3)cc2)c(OC)c1	9%	-0.1	3	1.7%	11	11%	-3%[15.4 µM]
COC(=O)c1ccc(Cl)c(NC(=O)CN2CCC(C)CC2)c1	12%	0.5	-3	-0.8%	18	-4%	-1%
N#C/C(=C\c1ccc(N2CCCCC2)o1)C(=O)Nc1cccc(Br)c1	-21%	?	-11	nt	4	-9%	-49%[15.4 µM]
O=C(/C=C/c1ccc2c(c1)OCO2)NCCSCc1cccc(Cl)c1	8%	3.1	21	32µM*	-2	-15%	-44%[inhibitor]
CNC(=S)N1N=C(c2ccc(C)cc2)CC1c1ccc(Cl)cc1 (configuration not stated)	-27%	-0.6	-9	-2.8%	-4	1%	9%
Cc1ccc(C(=O)NNC(=O)CSc2nnc(C(C)C)n2C)cc1	-8%	-1.8	2	nt	2	11%	18%
COc1ccc(C2=NN(C(=O)CCC(=O)O)C(c3ccc(Br)cc3)C2)cc1 (configuration not stated)	-5%	-5.7	2	nt	-3	?	-10%
CC(=O)c1c(C)[nH]c(C(=O)NNC(=O)c2ccc(C)cc2)c1C	nt	nt	3	-0.4%	nt	0%	10%
CC1CCCC(NC(=O)COC(=O)c2ccc([N+](=O)[O-])o2)C1C (configuration not stated)	nt	nt	0	nt	nt	1%	15%
COC(=O)Cn1c(=O)c2c(nc(Br)n2CC(=O)OC)n(C)c1=O	20%	4.7	4	-5.7%	-2	-6%	-38%[inhibitor]
CCCN1CNC(=S)N(c2cccc(C)c2)C1	13%	-1.6	-10	nt	-15	-7%	?
Cc1cc(C)c(S(=O)(=O)N(C)CC(=O)NCC2CCCO2)c(C)c1 (configuration not stated)	17%	3.9	0	nt	-7	0%	4%[15.4 µM]
COc1cccc(CNc2nc(C(F)(F)F)nc3ccccc23)c1	-1%	-4.0	14	nt	9	-11%	24%[15.4 µM]
CCOc1ccc(C(=O)N[C@H](C(=O)NC2CCCCC2)C(C)C)cc1	nt	nt	8	-0.6%	nt	nt	-59%[inhibitor]
CCOC(=O)N1CCC(NC(=O)c2cccc3c2C(=O)N(c2ccc(OC)cc2)C3)CC1	-4%	3.1	3	0.1%	-2	-7%	?
O=C(c1ccc(-c2ccc(Cl)cc2Cl)o1)N1CCOCC1	1%	-3.8	nt	-1.6%	-14	-5%	-3%
NC(=O)C1(N2CCCCC2)CCN(C(=S)NC2CCCC2)CC1	6%	-1.5	0	nt	1	2%	-1%
CCOC(=O)CSc1nnc(-c2cccnc2)n1Cc1ccccc1	13%	-1.1	1	-0.6%	?	3%	-18%
COC(=O)Nc1nc2ccc(Sc3ccccc3)cc2[nH]1	-4%&8%&18%	-3.4	3	0.3%	10	8%	nt
Cc1ccnc(NC(=O)CCC(=O)N(CC(=O)NCc2ccc(F)cc2)Cc2ccccc2)c1	8%	-1.5	-7	nt	-2	-32%	7%[15.4 µM]
CC(C)(C)N1CC(C(=O)Nc2cccc(Cl)c2Cl)CC1=O (configuration not stated)	8%	0.2	-17	-0.9%	0	6%	5%[15.4 µM]
C=CCn1c(SCC(N)=O)nnc1-c1ccccc1O	-24%	1.4	-3	-4.7%	-2	2%	3%
CCc1ccc(S(=O)(=O)NC(=S)Nc2ccccc2)cc1	16µM*	0.6	0	nt	3	3%	-3%[15.4 µM]
Cc1[nH]c(=O)[nH]c(=O)c1S(=O)(=O)Nc1ccc(S(N)(=O)=O)cc1	0%	-1.2	-1	0.4%	-8	7%	-4%[15.4 µM]
CC(C)(C)c1ccc(-c2conc2N)cc1	-4%	3.3	4	0.4%	-13	-7%	-18%
Cc1ccc(-c2nc3cnccn3c2Nc2ccc3c(c2)OCO3)cc1	?	7.6	-1	-0.9%	nt	-17%	-60%[inhibitor]
COc1ccc(/C=C/C(=O)Nc2cc(=O)n(C)c(=O)n2C)cc1	1%	-1.0	-9	-1.5%	-7	8%	?
CC(C)(NO)/C(=N\O)c1ccc(Cl)cc1	-7%	1.2	3	0.2%	1	-3%	0%
Cc1ccc(S(=O)(=O)N(C)C)cc1NC(=O)COC(=O)C1COc2ccccc2O1 (configuration not stated)	19%	-0.6	0	nt	-6	nt	0%[15.4 µM]
Further compounds:
SMILES	Sfp PPTase inh	Menin-MLL FL inh	CtBP-E1A inh	ClpP mod	TRPV1 PAM	gsp antag	gsp agonist
C[C@H](NC(=O)c1[nH]cnc1C(=O)Nc1ccc(Cl)cc1)C(=O)OC(C)(C)C	22%	1.0	4	-3.5%	29	0%	?
CCN1C(=O)[C@H]2[C@@H](c3ccc(C)cc3)N3C(=O)N(c4cccc(Cl)c4)C(=O)[C@@]3(CC)[C@H]2C1=O	nt	nt	3	0.3%	6	1%	nt
CC(=O)c1ccc(S(=O)(=O)N2CCCCC2C(=O)O)cc1 (configuration not stated)	9%	1.6	nt	-1.5%	17	-2%	2%
COc1cc(/C=N/NC(=O)/C(=C/c2ccccc2)CCO)ccc1O	14%	3.7	-1	-1.1%	-1	7%	20%
Cc1nc(-c2ccc(F)cc2)c(CC(=O)N2CCN(S(=O)(=O)c3ccc(F)cc3)CC2)s1	-14%	-0.3	-3	1.2%	-13	-13%	-12%
O=C(O)c1cccc2cccnc12	?	-3.8	-1	-0.6%	2	8%	6%
COc1ccc(OC)c(/C=N/NC(=O)CNC(=O)c2cccc3ccccc23)c1	13%	4.5	-14	18µM*	12	4%	?
COC(=O)C1=C(C)NC(=O)C1(NS(=O)(=O)c1ccc(NC(C)=O)cc1)C(F)(F)F (configuration not stated)	18%	-2.2	12	-0.3%	18	4%	28%
O=C(CCN1CCN(c2ccccc2)CC1)c1ccc(Br)cc1	-5%	-30	nt	-2.7%	0	5%	6%
